# High-throughput results: PubChem BioAssay, National Center for Advancing Translational Sciences (NCATS)
# HSD17B inh: blocks hydroxysteroid 17-beta dehydrogenase activity; recombinant HSD17B10, NADH fluorescence kinetic; many of its hits are not listed in these tables; Potency, µM (series often up to 57.1 µM), for the others: top-dose activity change, negative = inhibition, hits mostly inhibitors; actives 7.6% (n = 75,000); active means well fitted inhibition curve with a large enough effect; inconclusive means small, poorly fitted or top-dose-only effect; inactive means no such curve, though single readings can be large or run the other way;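 further: the protocol describes HADH2 (HSD17B10) and not the HSD17B4 of the title; nearly all actives have a fitted effect of over 70% in size; most hits overshoot -100% by far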
#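 20 nM HADH2, pH 9.0 Tris/Tween; cpd preinc 15 min RT; start w/ 1 mM NAD+ + 90 uM b-hydroxybutyryl-CoA; kinetic fluor ex360/em450 q30s x 4 min; delta last-first.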
# * hit, by the source's call; ? = inconclusive; & = joins results of further samples; [ ] = remark or other dose. On the % scale 0 is the no-effect control and ±100 the full control effect; potency means the concentration at half of the fitted maximal effect. This is a subset; count on the stated rates, not on these rows.
no.	smiles	HSD17B inh
1	O=C(CSc1ncc(-c2ccc(F)cc2)[nH]1)NCc1ccco1	-6.0%
2	Nn1c(Cc2ccccc2F)nnc1SCn1nnc2ccccc2c1=O	3.8%
3	N[C@H](C(=O)O)c1ccc(O)c(C(=O)O)c1	39.8µM*
4	O=c1c(O)c(-c2ccc(O)c(O)c2)oc2ccccc12	-23.4%
5	COc1ccc(C(=O)CSc2ncn[nH]2)cc1OC	-0.1%
6	COc1ccc(C2N(c3cc(Cl)ccc3OC)C(=O)C3CCCN32)c(OC)c1 (stereo unspecified)	5.0%
7	CC(C)Cc1nc(SCC(=O)NCc2ccccc2)n[nH]1	4.8%
8	O=C(Sc1nnnn1C1CCCCC1)c1cccs1	-3.0%
9	O=C(OCCN1C(=O)c2ccccc2C1=O)c1cccc(OC(F)F)c1	-2.2%
10	COc1ccc(-c2ccc(=O)n(CC(=O)Nc3cccc(O)c3)n2)cc1OC	0.6%
11	COCCn1nnnc1CN1CCOCC1	-5.6%
12	Cc1cccc(C(CC(=O)N2CCCC2)c2ccccc2)c1O (stereo unspecified)	7.8%
13	OCCNCC(O)Cn1ccc2ccccc21 (stereo unspecified)	-3.4%
14	CN(C)c1ccc(CN2CCCC(O)C2)cc1 (stereo unspecified)	-2.7%
15	CCOCCCNC(=O)C(c1ccc(OC)cc1)N(Cc1ccc2c(c1)OCO2)C(=O)CNC(C)=O (stereo unspecified)	9.2%
16	CCOC(=O)C1CCCN(C(=O)c2cc(Nc3ccc(OC)c(OC)c3)nc3ccccc23)C1 (stereo unspecified)	-4.3%
17	Cc1ccc2oc(=O)c3cnn(CC(=O)N4CCCCC4C)c3c2c1 (stereo unspecified)	6.6%
18	Cc1cc(=O)n2nc(N3CCCC(C(=O)NCCc4ccccc4)C3)sc2n1 (stereo unspecified)	6.6%
19	O=c1c2ccccc2nnn1Cc1ccccn1	5.8%
20	CCOC(=O)N1CCN(C(=O)CSc2nc3c(cnn3-c3ccc(C)cc3)c(=O)[nH]2)CC1	4.3%
21	O=C(CCC(=O)N1CCCC1)Nc1nnc(C(F)(F)F)s1	1.1%
22	CC(=O)N1CCN(CCN=CC2=C(O)CC(c3ccc(Cl)cc3)CC2=O)CC1 (stereo unspecified)	4.3%
23	CC(=O)Nc1ccccc1C	-0.1%
24	CCc1ccc(CC)c(S(=O)(=O)Nc2ccc(O)c(C(=O)O)c2)c1	-18.2%
25	O=C(/C=C\c1ccc(O)c(O)c1)OCCc1ccccc1	20µM*
26	COc1nnc(-c2ccc(N3CCOCC3)c(NC(=O)c3ccco3)c2)c2ccccc12	8.3%
27	O=c1c2[nH]c3ccc(F)cc3c2ncn1CCCn1ccnc1	25.1µM*
28	COc1cccc(NC(=O)c2cccnc2)c1	4.6%
29	COC(=O)c1cccc(S(=O)(=O)N2CCC(n3nnc4cc(F)ccc43)CC2)c1	9.6%
30	O=C(NC(Cc1ccc(F)cc1)C(=O)O)c1ccccc1 (stereo unspecified)	1.1%
31	C=CCNC(=O)c1ccc(Cl)cc1Cl	7.8%
32	CCC(C)NC(=O)CSc1nc2ccccc2c(=O)n1CCCC(=O)NCC1CCCO1 (stereo unspecified)	3.6%
33	O=S(=O)(O)c1cc(O)c2c(O)c(N=Nc3cccc4ccccc34)c(S(=O)(=O)O)cc2c1	-8.3%[11.4 µM]
34	CN1CCN(C(=O)c2ccccc2-c2ccccc2C(=O)O)CC1	-4.5%
35	CCCCSCc1[nH]c(=O)[nH]c1C(=O)CCCCC(=O)OCC	7.1%
36	COCc1nnc(SCC(=O)NC(C)c2ccccc2)n1-c1ccccc1 (stereo unspecified)	4.6%
37	Cc1cc(-c2nnc3sc(-c4ccc(Cl)cc4Cl)nn23)n[nH]1	-2.6%
38	CC(C)CCn1c(CN2CCN(C(=O)c3ccco3)CC2)nc2c1c(=O)n(C)c(=O)n2C	25.1µM*
39	CCOC(=O)C1CCN(C(=O)NC23CC4CC(CC(C4)C2)C3)CC1	12.5%
40	Cc1ccc(N2CC(C(=O)Nc3nnc(C)s3)CC2=O)cc1 (stereo unspecified)	-6.9%
41	Cc1ccc(N2C(=O)c3n[nH]c(C)c3C2c2cccnc2)cc1 (stereo unspecified)	5.1%
42	C/C(Cl)=C\Cn1c(Nc2ccccc2)nc2c1c(=O)n(C)c(=O)n2C	-5.7%
43	CC1(C)Cc2cccc(OCC(=O)Nc3ccccc3N3CCOCC3)c2O1	10.8%
44	COCCN(Cc1cc2cccc(C)c2n2nnnc12)C(=O)C(F)(F)F	3.1%
45	Cn1c(=O)c(C(=O)Nc2ncccn2)c(O)c2ccccc21	-15.7%
46	CCN(CCN(C)C)C(=O)Cn1ncc2c1-c1cc(C)ccc1OC2	3.7%
47	CCOC(=O)c1cc(S(=O)(=O)NC2CCN(C(=O)OCC)CC2)cn1C	-14.0%
48	Cc1ccc(O)c(Sc2cc(C)ccc2O)c1	-15.2%
49	COc1ccccc1N1CCN(C(=O)CCCC2=NS(=O)(=O)c3ccccc3N2)CC1	-1.5%
50	Cc1ccc(/C(O)=C2\C(=O)C(=O)N(CC(C)O)C2c2cccc(F)c2)cc1 (stereo unspecified)	10.3%
51	N#Cc1c(C(F)(F)F)cc(-c2ccco2)nc1SCc1ccncc1	15.8µM*
52	COc1ccccc1-c1nc(-c2cccc(C)c2)no1	?
53	OCCN(CC(O)Cn1ccc2ccccc21)CC(O)Cn1ccc2ccccc21 (stereo unspecified)	0.5%
54	O=C(Cn1nc(C(F)(F)F)c2c1CCC2)N1CCN(c2ccccc2)CC1	2.2%
55	COc1ccc(-c2nc(CS(=O)CC(=O)NCCCN3CCCC3)c(C)o2)cc1OC (stereo unspecified)	?
56	COc1cc(OC)c2c(c1)OC(c1ccccc1)CC2=O (stereo unspecified)	31.6µM*
57	CCn1cc(C(=O)NCCCOC)c(=O)c2cc(S(=O)(=O)N(C)C3CCCCC3)ccc21	3.0%
58	Clc1ccc(Nc2nc(-c3cccs3)cs2)nc1	6.4%
59	Cc1nc(SC(C)C)[nH]c(=O)c1Cc1ccccc1	3.0%
60	COc1ccc(C2C(C(=O)N3CCCCC3)CCC(=O)N2c2cc(OC)c(OC)c(OC)c2)cc1 (stereo unspecified)	6.9%

# Additional results.
no.	smiles	HSD17B inh
61	Cc1csc(NC(=O)CSc2nnc(C)n2Cc2ccco2)n1	0.1%
62	COc1ccc(Oc2ncc3nc(CCc4ccccc4)c(=O)n(C4CC4)c3n2)cc1	?
63	Cc1nn(CC(=O)N2CCN(Cc3ccccc3)CC2)c(=O)c2ccccc12	-0.6%
64	Cc1cc2n(n1)C(c1ccco1)Nc1ccccc1-2 (stereo unspecified)	25.1µM*
65	Cc1cc(C(=O)CSc2nnc(NCc3ccccc3)s2)c(C)n1C	-11.1%
66	CCCNC(=O)OC[C@@H]1O[C@H](CCO/N=C\C[C@H]2C=C[C@H](OC(C)=O)[C@@H](COC(C)=O)O2)C=C[C@@H]1Oc1ccc(OC)cc1	5.0%[11.4 µM]
67	O=C(CSc1ccc2nnc(-c3ccc(F)cc3)n2n1)N1CCCCC1	-25.4%
68	CC(=O)Nc1nc(C(=O)Nc2c(C)n[nH]c2C)cs1	-8.5%
69	COc1ccc(Cn2c(C3CC3)nc3ccc(NC(C)=O)cc3c2=O)cc1	?
70	Cc1ccc(S(=O)(=O)NC(C)C(=O)Nc2ccccc2C(=O)N2CCCC2)cc1 (stereo unspecified)	7.4%
71	CC(=O)c1c(N2CCN(Cc3ccccc3)CC2)[nH]c(-c2ccccc2)nc1=S	-7.4%
72	Cc1coc2c(C)c3oc(=O)c4c(c3cc12)CCC4	-21.7%
73	O=C(CCCN1C(=O)CCC1=O)Nc1ccc(Cl)c(C(F)(F)F)c1	-1.3%
74	CC(C)n1cnc2cc(NCc3nc4ccccc4n3C)ccc21	-13.4%
75	CC(C)CN1CCCC2(CCN(C(=O)c3cccc(F)c3)CC2)C1	2.0%
76	CC1CCN(S(=O)(=O)c2ccc3[nH]c(=O)cc(C(=O)O)c3c2)CC1	-7.6%
77	CCC(C)(C(=O)NC1CCCCC1)N(Cc1ccco1)C(=O)c1ccc2c(c1)OCO2 (stereo unspecified)	-0.1%
78	COc1ccc(-c2noc(COc3ccc4c(c3)OCO4)n2)cc1OC	9.9%
79	CCc1ccc(N/C(SC)=C(/C#N)C(N)=O)cc1	6.0%
80	Nc1c(C(=O)NC2CCCCC2)nsc1C(=O)OCC(=O)NC1CCCCC1	?
81	CCOC(=O)COc1ccc(S(=O)(=O)Nc2ccc3c(c2)OCO3)cc1	1.0%
82	O=C(CN1CCN(c2ncc(C(F)(F)F)cc2Cl)CC1)Nc1ccc2c(c1)OCO2	-8.7%
83	Cc1cc(=O)[nH]c(SCC(=O)Nc2ccc(S(=O)(=O)N3CCCCC3)cc2)n1	-9.8%
84	CCOC(=O)c1c(/N=C/N(C)C)sc(C(=O)OC)c1C	-6.9%
85	CCC1=C(OC(=O)N(CC)CC)N2C(=O)OC(=NCCOC)[C@]2(Cc2ccccc2)[C@H]2C1=CC[C@H]1C(=O)NC(=O)[C@H]12	-2.1%
86	O=c1c2cnn(-c3ccccc3)c2ncn1Cc1cccc(Cl)c1	1.7%
87	COCc1cc(=O)n2[nH]c(SC)nc2n1	-16.4%
88	Cc1cc(C)nc(SCC(=O)Nc2ccc(N3CCOCC3)cc2)n1	16.4%
89	CCCC(=O)NCCc1nc2ccccc2n1C	1.7%
90	C=C(C)CSc1nncn1/N=C/c1ccc(OC)cc1	-9.3%
91	Cc1nc2ccc(S(=O)(=O)NC(C(=O)N3CCCCCC3)C(C)C)cc2s1 (stereo unspecified)	4.5%
92	CCOC(=O)c1ccc(NC(=O)CC2C(=O)N(c3cccc(OC)c3)C(=O)N2CCOC)cc1 (stereo unspecified)	-18.4%
93	Fc1ccc(CNc2ccc(CNc3ncn[nH]3)cc2)cc1	-1.9%
94	COC(=O)c1cn(NC(=O)CC2CCCCC2)c(=O)c2ccccc12	-11.7%
95	O=C/C=C/c1ccc(O)cc1	4.2%
96	COc1ccc(OC)c(NC(=O)C2CCCN(S(=O)(=O)c3cccc4cccnc34)C2)c1 (stereo unspecified)	6.9%
97	Cc1cc(C)n2nc(NCc3cccc(Br)c3)nc2n1	31.6µM*
98	CSc1nc(C)c(Oc2ccccc2)c(=O)n1C	-6.0%
99	COc1cc(C)c(Cl)cc1S(=O)(=O)NCc1ccncc1	7.0%
100	CCOCCCn1c(=S)[nH]c2cc(C(=O)NCCN(CC)CC)ccc2c1=O	-10.6%
101	CC(C)Cc1cc(C(=O)Nc2cc(Cl)ccc2Cl)no1	?
102	O=c1c2cc(Cl)ccc2oc2nc3n(c(=O)c12)CCCS3	-17.1%
103	CCCSCCCNC(=O)Cn1cc2c(n1)CCC(C)C2 (stereo unspecified)	2.2%
104	O=C(Nc1ccc(N2CCOCC2)cc1)C1(S(=O)(=O)c2ccccc2)CC1	-11.4%
105	COc1ccc(OC)c(NC(=O)c2ccc(NS(=O)(=O)c3c(C)noc3C)cc2)c1	2.6%
106	CCCn1c(=N)n(CC(=O)c2ccco2)c2ccccc21	1.8%
107	CCN1C(C)=C(C(=O)OC)C(c2ccccc2)N2C(=O)[C@@]3(C(=O)OC)O[C@@]12C1C(=O)N(C)C(=O)C13 (stereo partly specified)	0.5%[11.4 µM]
108	COC(=O)c1ccc(C2C(C(C)=O)=C(C)Nc3ncnn32)cc1 (stereo unspecified)	9.7%
109	COc1cc(-c2c(C#N)c(N)nc(SCc3ccncc3)c2C#N)cc(OC)c1OC	-5.8%
110	O=C1CN(C(=O)c2ccc(Br)o2)C(c2ccc(F)cc2)c2cc(F)ccc2N1 (stereo unspecified)	-21.4%
111	O=C(Nc1cccc(F)c1)N1CC2(CCN(C(=O)c3cc(C(F)(F)F)cc(C(F)(F)F)c3)CC2)C1	5.0%
112	O=C(Nc1ccc(Oc2ccc(Cl)cc2)cc1)c1ncn[nH]1	-20.8%
113	CC1CCCCN1CCNC(=O)CN1C(=O)COc2ccccc21 (stereo unspecified)	1.3%
114	Cc1nc2n(n1)CC(O)CS2 (stereo unspecified)	15.8%
115	O=C(Cn1c(=O)oc2cc(S(=O)(=O)N3CCCC3)ccc21)N1CCN(c2ccccn2)CC1	?
116	CN(C)c1ncc2nc(-c3cc(F)cc(F)c3)c(=O)n(Cc3cccs3)c2n1	3.1%
117	O=C(Nc1ccccc1-c1nc2ccccc2o1)c1ccc2c(c1)OCCO2	-9.0%
118	O=C(C1CCCO1)N1CCN(c2ncccn2)CC1 (stereo unspecified)	-7.0%
119	Cc1ccc(-n2nnnc2SCC(=O)NC(=O)Nc2ccc3c(c2)OCCO3)cc1	2.4%
120	COCCn1c(SCC(=O)Nc2ccc(S(=O)(=O)N3CCOCC3)cc2)nc2ccccc21	0.8%

# The results go on.
no.	smiles	HSD17B inh
121	Cc1ccc2c(C)nc(NC3=NCN(CCc4ccccc4)CN3)nc2c1	-3.9%
122	COC(=O)C1CCCN1S(=O)(=O)c1ccc2ccccc2c1 (stereo unspecified)	-1.7%
123	COC(=O)COc1ccc(S(=O)(=O)NCc2ccco2)cc1Cl	3.3%
124	COCCNc1cc(-c2ccccc2C(F)(F)F)ncn1	?
125	CCCn1c(=O)c2[nH]c(C3CCCC3)nc2n(CCC)c1=O	6.0%&-6.3%
126	Cc1nn(-c2ccccn2)c2c1C(c1ccsc1)C1=C(CCCC1=O)N2 (stereo unspecified)	25.1µM*
127	COCC(=O)N1CCC2(CC1)CN(c1ccncc1)C2	4.5%
